Screens from PubChem BioAssay.
D2 agonist: agonists of human D2 dopamine receptor (beta-arrestin); activation, % (no concentration beside the values); AID 624465; DiscoveRx PathHunter D2 beta-arrestin, luminescence, 90 min; 100% = 57 uM dopamine signal; P14416; actives 0.084% (n = 360,000); in the data active = activation above about 40%; inconclusive = about 15% to 40%; inactive = below about 15%; also: compound concentration not given in the record; the text of the record calls up to 30% inactive
Target sequence (P14416 whole entry, looked up): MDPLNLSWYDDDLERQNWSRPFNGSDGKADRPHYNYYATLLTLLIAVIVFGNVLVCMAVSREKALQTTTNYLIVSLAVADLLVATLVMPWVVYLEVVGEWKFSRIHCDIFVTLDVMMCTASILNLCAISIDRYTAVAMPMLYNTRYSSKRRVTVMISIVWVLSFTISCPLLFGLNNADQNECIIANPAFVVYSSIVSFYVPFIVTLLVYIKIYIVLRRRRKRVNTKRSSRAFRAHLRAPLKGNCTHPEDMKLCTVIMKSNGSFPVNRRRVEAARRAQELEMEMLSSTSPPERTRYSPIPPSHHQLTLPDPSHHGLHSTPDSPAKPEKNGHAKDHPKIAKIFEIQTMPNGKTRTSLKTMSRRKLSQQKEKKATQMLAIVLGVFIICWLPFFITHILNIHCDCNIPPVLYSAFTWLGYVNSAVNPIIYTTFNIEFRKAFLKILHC
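Agonist mode: compounds alone added to overnight-plated D2 PathHunter cells for 90 min at 37 C, with 57 uM final dopamine (EC100) defining full response. Beta-arrestin recruitment detected by chemiluminescent reagent, read after 1 h at ambient temperature.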
PINK1 modulator: PINK1 expression modulation; AID 624263; Potency, µM (series often up to 76.6 µM), without a hit: top-dose activation (PINK1 increase), most hits filed as activators; PINK1 immunofluorescence, high-content cytometry, 24 h; actives 0.2% (n = 410,000); active = well fitted activation curve with a large enough effect; inconclusive = small, poorly fitted or top-dose-only effect; inactive = flat fitted curve, though single readings scatter; cell line not stated here;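 also: potency is read from the fitted curve at half-maximal effect; % of control where 0% means no effect; nearly all actives have a fitted effect of over 65% in size; a mitochondrial uncoupler was the plate control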
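Measures PINK1 amount and localization on or inside mitochondria by immunofluorescence. Stable cells get compounds at 5 concentrations for 24 hours before fixation and staining; CCCP controls included.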
CtBP-E1A blk: blocks the CtBP interaction with E1A. AID 651724. AlphaScreen GST-E1A/His-CtBP binding, 1536-well; stronger effect = lower value; control for the full effect not named in the record. activity change, % (concentration not given with the values). actives 0.49% (n = 340,000); in the data active means activity change below about -65%; inconclusive means about -30% to -65%; inactive means above about -30%; also: % is scaled to controls: 0 for no effect and ±100 for the full control effect
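AlphaScreen with 125 nM GST-E1A and 125 nM His-CtBP (5X stocks) in Tris pH 8.0, 300 mM NaCl, BSA, Tween 20, TCEP. Compounds preincubated 2 h at 37 deg C, then glutathione donor/nickel acceptor beads added for 1 h at 37 deg C in dark.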
D2 PAM: human D2 receptor positive allosteric modulation | P14416 | DiscoveRx D2 beta-arrestin cells, luminescence, 90 min; 100% = 57 uM dopamine signal | potentiation, % (no concentration beside the values) | actives 0.23% (n = 360,000); active = potentiation of 50% or more; inconclusive = 30% to 50%; inactive = 30% or less;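 also: compound concentration not given in the record; tested on top of an EC20 dose of dopamine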
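PathHunter D2 cells, attached overnight at 37 deg C, received compound in DMSO plus dopamine at EC20 (50 nM final) for 90 min at 37 deg C. Beta-arrestin recruitment was read as luminescence after 1 h with detection reagent at ambient temperature.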
TRPML1 ag: human mucolipin-1 channel agonism; AID 624414; actives 0.12% (n = 410,000); activation, % (concentration not given with the values); TRPML1-expressing cells, Ca2+ dye fluorescence, FDSS; host cell line not named in the record; reference of the full effect not given here; Q9GZU1; in the data active = activation above about 50%; inconclusive = about 30% to 50%; inactive = below about 30%; also: 0% is about no effect; the text of the record puts the active cut at 80%
Target sequence (Q9GZU1 whole entry, looked up): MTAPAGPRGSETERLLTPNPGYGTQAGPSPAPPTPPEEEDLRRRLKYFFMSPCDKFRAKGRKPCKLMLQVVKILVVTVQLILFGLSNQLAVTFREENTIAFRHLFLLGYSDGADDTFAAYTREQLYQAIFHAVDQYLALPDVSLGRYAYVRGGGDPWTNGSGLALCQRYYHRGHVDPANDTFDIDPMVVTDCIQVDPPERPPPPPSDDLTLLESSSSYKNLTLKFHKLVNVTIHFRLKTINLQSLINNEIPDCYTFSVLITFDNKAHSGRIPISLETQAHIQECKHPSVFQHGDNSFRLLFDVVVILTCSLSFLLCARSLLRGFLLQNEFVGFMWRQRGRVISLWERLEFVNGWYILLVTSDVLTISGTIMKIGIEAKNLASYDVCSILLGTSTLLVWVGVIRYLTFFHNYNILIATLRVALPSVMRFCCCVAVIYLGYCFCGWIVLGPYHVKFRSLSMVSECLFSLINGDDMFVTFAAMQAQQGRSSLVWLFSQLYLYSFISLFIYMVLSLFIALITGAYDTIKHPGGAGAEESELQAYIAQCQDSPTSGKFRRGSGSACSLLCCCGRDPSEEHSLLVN
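Tet-induced TRPML1-DL cells, 1,500 per well, cultured overnight, were loaded with a no-wash Ca2+ dye for 45–90 min. Calcium fluorescence was recorded on the FDSS for 110 s after compound addition, before the EC80 agonist (4 uM 54-4) was added.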
Six1-Eya2 inh: Six1/Eya2 interaction inhibition; AlphaScreen GST-Six1/His-Eya2 binding, biochemical; stronger effect = lower value; control for the full effect not named in the record; activity change, % (concentration not given with the values); Q15475+O00167; AID 651725; actives 0.56% (n = 360,000); in the data active = activity change below about -65%; inconclusive = about -30% to -65%; inactive = above about -30%; also: % is scaled to controls: 0 for no effect and ±100 for the full control effect
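Compounds are tested against tagged Six1 and Eya2 proteins bridged by glutathione donor and nickel acceptor beads; after a one-hour incubation at 37 °C without light, AlphaScreen emission is recorded.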
Numbers without * were called inactive; ? = inconclusive; nt = not tested or not shown; [ ] = remark or other dose.

SMILES	Six1-Eya2 inh	PINK1 modulator	D2 agonist	D2 PAM	CtBP-E1A blk	TRPML1 ag
OC(CNCCc1ccccc1)COc1ccc(OCC(O)CNCCc2ccccc2)cc1 (configuration not stated)	-22	-1.4%	3.8	-8	-29	2.0
O=[N+]([O-])c1ccccc1/C=N/N1CCN(c2ccccn2)CC1	-23	1.6%	0.6	2	-12	0.3
O=C(Nc1nc2c(s1)C(=O)CCC2)c1ccccc1	-2	0.1%	0.4	-11	-2	-0.4
Cc1cc(C)c(S(=O)(=O)N2CCCC(C(=O)NCc3ccncc3)C2)c(C)c1 (configuration not stated)	-3	0.7%	-3.8	13	3	0.8
CCn1c(=O)c(C)nn2c3ccccc3nc12	13	-3.2%	-0.4	-8	7	0.6
C=CCOc1ccc(C[C@H](N)C(=O)NC[C@H]2O[C@@H](n3cc(C)c(=O)[nH]c3=O)C[C@@H]2O)cc1	2	0.5%	-6.4	2	6	-0.4
O=C(c1ccc(-c2cccc(C(F)(F)F)c2)o1)N1CCCC(C(F)(F)F)C1 (configuration not stated)	-10	3.2%	-4.9	-3	10	5.3
O=C(O)C1C2C=CC3(CN(Cc4ccco4)C(=O)C13)O2 (configuration not stated)	-15	-3.5%	-1.5	-1	-1	1.2
COc1cc(C)ccc1OCCOCCOc1ccc([N+](=O)[O-])cc1	2	0.1%	2.4	-6	0	1.2
O=C(CCN1CCN(CCO)CC1)Nc1ccc(F)c(F)c1	1	-0.5%	-1.6	-2	4	0.3
O=C(NCc1ccccc1Cl)C1CCC(=O)N(CCCN2CCCC2=O)C1 (configuration not stated)	0	-0.4%	-3.1	-12	7	0.3
COc1cc(NC(=O)c2cc3sccc3n2C)cc(OC)c1	-17	20%[38.3 µM]	3.6	-17	3	2.4
CCN(CC)CCCNC(=O)c1cc2c(=O)n(C)c3ccccc3c2n1C	-7	1.0%	-2.3	-7	-2	-0.1
CCOC(=O)CC(NC(=O)c1ccco1)c1ccc(OC)cc1 (configuration not stated)	22	-4.7%	-3.6	-8	45	-0.1
Nc1ccc2oc(=O)c(-c3ccccc3)cc2c1	0	0.2%	-3.1	-4	2	-0.9
O=C(CCCNC(=O)c1ccc(Cl)cc1)Nc1ccc(F)c(S(=O)(=O)N2CCOCC2)c1	-1	4.1%	2.2	-3	4	1.1
CCOc1ccc2oc(C(=O)Nc3ccc(N4CCOCC4)cc3)c(C)c2c1	-11	13%	-1.3	18	-6	-0.6
COc1ccc(Nc2nc(NCc3cccs3)nc3ccsc23)cc1OC	?	4.8%	-3.0	-6	-25	0.8
Cc1cc(C2CCCCC2)n(O)c(=O)c1	-1	0.0%	2.8	-9	?	0.9
COc1ccc(C2NC(=O)c3ccccc3O2)cc1 (configuration not stated)	-3	1.9%	-10	-10	1	nt
O=C(NCCS(=O)(=O)N1CCC2(CC1)OCCO2)c1ccc(F)cc1	-2	4.8%	-0.3	-5	9	2.7
CCC(CC)NC(=O)COC(=O)c1ccc(NS(=O)(=O)c2ccc3c(c2)OCCO3)cc1	3	0.3%	-4.7	-18	3	-0.4
COC(=O)c1ccc(NC(=O)Cn2cnc3c(nnn3-c3cccc(OC)c3)c2=O)cc1	7	1.7%	-6.3	-2	-16	-0.5
O=C(CC1C(=O)NC2CCCCC2N1C(=O)c1ccc(F)cc1)Nc1ccccc1 (configuration not stated)	0	-1.6%[38.3 µM]	-3.7	-22	5	0.0
CCOc1cccc(OCCCCn2ccnc2)c1	-11	-2.2%	-3.3	0	0	-1.3
Cc1ccc(C)c2[nH]c(=O)c(CN(CCN3CCCC3)C(=O)Nc3ccc(F)cc3)cc12	-8	3.7%	0.5	-46	-2	-1.2
O=C(C1CCC(=O)N(C2CC2)C1)N1CCN(c2ccc(Cl)cc2)CC1 (configuration not stated)	0	-0.2%	-2.5	-4	4	-0.1
CN(Cc1ccccc1)C(=O)COc1ccc(Br)cc1Cl	-1	0.5%	-1.0	-10	9	0.3
C=CCNC(=O)c1ccncc1	7	-1.0%[38.3 µM]	-0.8	1	0	0.2
COc1ccc(CCNC(=O)COC(=O)c2cccs2)cc1OC	-5	0.4%	5.6	2	8	-0.3
CN1c2ccccc2-c2nc3ccccc3n2C1c1cccs1 (configuration not stated)	13	14%	0.9	-9	-20	0.7
Cc1cccc(NC(=O)Nc2cccc(F)c2)n1	7	-1.8%	-2.3	-12	-1	0.6
CCOC(=O)c1c(C)[nH]c(C)c1C(=O)COC(=O)c1cc(OC)c(OC)cc1OC	-7	1.3%	0.7	-4	-1	-0.6
O=C(CCn1[nH]c(=O)c2ccccc2c1=O)OC1CCCCC1	0	2.6%[38.3 µM]	-1.0	3	56	-0.5
COC/C=C/C1=CC2=CC(=O)C(C)(OC(=O)C3CCCC3)C(=O)C2=CO1 (configuration not stated)	?	0.5%	1.9	-1	-9	-0.7
O=C(c1ccc(Br)cc1)N(c1ccccn1)C1CCCCC1	8	0.9%	-2.7	-11	-1	0.8
Nc1cc(=O)[nH]c(SCC(=O)N2CCc3ccccc3C2)n1	-6	-0.8%	-6.0	-8	2	0.0
Cn1c(CS(=O)Cc2c(Cl)cccc2Cl)nnc1SCc1ccc(Cl)cc1 (configuration not stated)	1	-5.0%[38.3 µM]	0.1	-10	3	2.6
Cc1ccc2cccc(CC(=O)NN)c2c1	1	9.5%	-0.2	-10	3	-0.2
C=CCC(NC(=O)c1ccc(C#N)cc1)C(=O)NCCC (configuration not stated)	3	0.5%	0.5	-50	0	-0.9
CCOCCOC(=O)CCSc1n[nH]c(=O)[nH]c1=O	4	0.7%[38.3 µM]	-1.8	0	7	0.1
O=C(N/N=C/C1C(c2ccccc2)C1(Cl)Cl)c1cccc(Cl)c1 (configuration not stated)	9	5.1%	-1.9	-13	23	1.6
Cc1ccc(C)c(C(=O)COC(=O)c2ccc(C)c(S(=O)(=O)N3CCOCC3)c2)c1	0	2.0%	1.1	-2	-12	5.2
CC(=O)N1CCCc2cc(S(=O)(=O)NC(C(=O)NC(C)c3ccccc3)C(C)C)ccc21 (configuration not stated)	3	nt	-1.1	-11	0	-0.4
O=C(c1cc2ccccc2oc1=O)N(Cc1ccccc1)C1CCS(=O)(=O)C1 (configuration not stated)	1	-1.2%	-3.1	-13	0	2.7
O=C(NCc1ccccc1F)C1CCN(S(=O)(=O)c2ccccc2)CC1	0	-0.3%	-2.3	-5	-4	-0.2
Cc1cc(NC2CCCCC2)nc(-c2ccccc2O)n1	12	-0.3%	-0.2	20	16	-0.9
CCC(=O)N1c2ccc(S(=O)(=O)NCCc3ccc(OC)c(OC)c3)cc2CC1C (configuration not stated)	-7	-0.8%	2.4	-9	-24	-0.7
CN(C)C(=O)c1cn(-c2ccc(Cl)cc2)c(=O)c2ccccc12	-3	-0.6%	0.1	0	1	3.6
COc1ccc(-c2csc(NC(=O)Nc3ccccc3)n2)cc1	-19	0.7%	?	-2	-24	2.7

Laid out differently: 2 of the compounds above.
Each structure is followed by: Six1-Eya2 inh | PINK1 modulator | D2 agonist | D2 PAM | CtBP-E1A blk | TRPML1 ag
- O=C(c1ccc(Br)cc1)N(c1ccccn1)C1CCCCC1
    8 | 0.9% | -2.7 | -11 | -1 | 0.8
- Nc1cc(=O)[nH]c(SCC(=O)N2CCc3ccccc3C2)n1
    -6 | -0.8% | -6.0 | -8 | 2 | 0.0

Carrying on:
SMILES	Six1-Eya2 inh	PINK1 modulator	D2 agonist	D2 PAM	CtBP-E1A blk	TRPML1 ag
COc1ccc(Cl)cc1NC(=O)C1CC(=O)N(C2CCCCC2)C1 (configuration not stated)	-1	4.8%	-0.1	-30	-3	0.1
COC(=O)[C@@]12CCCCN1[C@H](c1ccc(SC3CCCCC3)c(OC)c1)[C@@H]1C(=O)N(C)C(=O)[C@@H]12	-16	1.9%	1.0	-5	-9	-0.2
O=C(CC1S/C(=N/N=C/c2cccnc2)NC1=O)Nc1ccccc1 (configuration not stated)	1	2.4%	-0.7	-9	-24	-0.5
CC1CCCCC1NC(=O)COC(=O)COc1ccccc1Cl (configuration not stated)	8	-1.1%	-4.5	-2	0	-1.0
CNC(=O)c1ccc(CN(C)C(=O)c2cc(C3CC3)nc3c2cnn3C(C)C)cc1	0	1.0%	-2.2	-31	-13	-0.3
CCOC(=O)Cn1c(=S)[nH]c2c(oc3ccc(Cl)cc32)c1=O	3	-3.3%	1.6	-8	-2	3.8
COc1ccccc1C(=O)NC(=S)N1CCCc2ccccc21	-21	2.7%[38.3 µM]	-1.9	12	-25	0.9
COc1cc([C@H]2Oc3c(OC)cc(CCCO[C@@H]4O[C@H](CO)[C@@H](O)[C@H](O)[C@H]4O)cc3[C@@H]2CO)ccc1O	-3	-0.6%	4.5	1	3	-0.3
O=C(N/N=C/c1ccc(O)cc1)Nc1cccc2nsnc12	?	-2.5%	3.3	5	-22	1.4
Cc1ccnc(NS(=O)(=O)c2ccc(NC(=O)c3cc(-c4ccccc4)nc4ccccc34)cc2)n1	1	3.4%	2.4	-13	-5	0.0
CNC(=O)C1=NCCCc2cc(OC)c(OC)cc21	5	4.5%[38.3 µM]	4.0	0	6	0.1
C/C(=N\NC(=O)c1cccnc1)c1ccc(-c2ccccc2)cc1	-2	-1.4%	-5.1	-3	-3	0.7
COc1ccc(C(=O)Nc2nnc(Cc3ccccc3)s2)c(OC)c1	-4	9.4%	-1.4	1	-23	2.4
CCOc1ccccc1C=NNc1ccc([N+](=O)[O-])cn1	0	?	-1.2	-9	-4	0.0
COc1ccccc1CC(=O)OCC(=O)N1CCN(c2ccc(F)cc2)CC1	-3	1.0%	-2.9	-2	nt	-1.2
CCOC(=O)N1CCN(C(=O)/C(=C/c2cccs2)NC(=O)c2ccc(OC)c(OC)c2)CC1	7	0.3%	0.9	8	8	0.3

Entries from the list above containing an NH in an aromatic ring (7):
SMILES	Six1-Eya2 inh	PINK1 modulator	D2 agonist	D2 PAM	CtBP-E1A blk	TRPML1 ag
C=CCOc1ccc(C[C@H](N)C(=O)NC[C@H]2O[C@@H](n3cc(C)c(=O)[nH]c3=O)C[C@@H]2O)cc1	2	0.5%	-6.4	2	6	-0.4
Cc1ccc(C)c2[nH]c(=O)c(CN(CCN3CCCC3)C(=O)Nc3ccc(F)cc3)cc12	-8	3.7%	0.5	-46	-2	-1.2
CCOC(=O)c1c(C)[nH]c(C)c1C(=O)COC(=O)c1cc(OC)c(OC)cc1OC	-7	1.3%	0.7	-4	-1	-0.6
O=C(CCn1[nH]c(=O)c2ccccc2c1=O)OC1CCCCC1	0	2.6%[38.3 µM]	-1.0	3	56	-0.5
Nc1cc(=O)[nH]c(SCC(=O)N2CCc3ccccc3C2)n1	-6	-0.8%	-6.0	-8	2	0.0
CCOCCOC(=O)CCSc1n[nH]c(=O)[nH]c1=O	4	0.7%[38.3 µM]	-1.8	0	7	0.1
CCOC(=O)Cn1c(=S)[nH]c2c(oc3ccc(Cl)cc32)c1=O	3	-3.3%	1.6	-8	-2	3.8
